Beta cell apopt – blocks beta cell apoptosis; INS-1E cytokine-induced death, ATP luminescence, 48 h; percent of positive-control rescue, neutral wells zero; protection from apoptosis, % (concentration not given with the values); actives 0.8% (n = 300,000); AID 435005;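 active = all replicates at 75% or more, or half of them and the mean; inconclusive = half reach 75% but not the mean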;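 also: 0% = cytokine-treated negative control wells and 100% = positive control rescue; higher means more ATP so stronger rescue from cytokine killing; wells of about 40 µL received 100 nL stock; the first replicate is given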
ALR H2O2 inh – human ALR oxidase inhibition via reduced H2O2. inhibition, % (test concentration not listed). purified ALR, DTT oxidation, H2O2 HRP-luminol luminescence. actives 3.8% (n = 290,000);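 active = mean and each replicate at 75% or more; inconclusive = only one of the two met; inactive = neither met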;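 also: stock transfer was 7.5 nL into about 7.5 µL; 0% = neutral wells and 100% = wells with inactivated enzyme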
Target sequence (P55789 whole entry, looked up): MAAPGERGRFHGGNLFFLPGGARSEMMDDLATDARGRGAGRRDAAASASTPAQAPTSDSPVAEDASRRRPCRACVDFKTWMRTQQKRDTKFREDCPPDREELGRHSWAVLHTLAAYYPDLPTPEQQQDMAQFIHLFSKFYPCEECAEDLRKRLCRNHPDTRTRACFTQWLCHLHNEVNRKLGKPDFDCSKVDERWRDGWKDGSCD
rRNA inh HTS – inhibitors of bacterial rRNA selective over humanized ribosomes | E. coli WT GFP vs humanized-ribosome RFP mutants, fluorescence, 24 h; hits give low values; DMSO median 0, no signal -100 | GFP signal change (wild-type ribosome), % (test concentration not listed) | actives 1.6% (n = 350,000) | AID 720706;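 active = significant combined selectivity score with lowered wild-type GFP, culture density cut under 30%, mutant RFP and density less affected; inactive = any of these conditions unmet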; also: one replicate is shown; some compounds called inactive have numbers as strong as hits
Calb FLC – affects C. albicans growth with fluconazole | actives 0.57% (n = 300,000) | C. albicans CaCi-2 (fluconazole-resistant clinical isolate) + fluconazole, Alamar Blue growth, 48 h | growth inhibition, % (test concentration not listed) | AID 1979;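 active = most replicates above 75%; inconclusive = exactly half above 75%; inactive = most below 75%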;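 also: all wells also contain fluconazole at 8 µg/ml as a sub-toxic cotreatment; 0% = median of DMSO wells and 100% = median of geldanamycin control wells; wells of about 8 µL received 7.5 nL stock; the first replicate is given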
Bfl-1 A1 inh – inhibitors of the anti-apoptotic protein A1, read as caspase activation | MEF A1-2A-BIM cells, Caspase-Glo 3/7 luminescence, 3 h; percent of clofoctol response, vehicle zero | caspase activation, % (test concentration not listed) | actives 0.066% (n = 330,000);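 active = over half of replicate activation scores above 10%, or exactly half above 10 with the replicate mean above 10; inconclusive = replicate mean below 10 yet half the replicates above 10; inactive = over half of replicates below 10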;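 also: wells of about 30 µL received 50 nL stock; many hits fall short of the cut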
T cruzi repl – blocks replication of Trypanosoma cruzi | T. cruzi beta-gal in NIH3T3, luminescence, 90 h | inhibition, % (no concentration beside the values) | actives 1.4% (n = 300,000) | AID 1885;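 active = mean inhibition across valid replicates above about 55%, limit read from the data; inconclusive = mean below that limit but half or more replicates reach it; inactive = mean below it, under half of replicates reach it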;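 also: signal also drops with host cell toxicity which is not excluded here; 0% = plate median of DMSO wells and 100% = zero luminescence signal; higher percent means less beta-gal luminescence so fewer parasites; stock transfer was 50 nL into about 50 µL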
B2AR ag – activates human beta-2 adrenergic receptor causing internalization; P07550; actives 0.43% (n = 340,000); response, % (test concentration not listed); Am2.2-beta2AR cells, FAP receptor internalization, flow cytometry; reference of the scale not given here;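 active = response above a set limit, near 3 SD of response in nonfluorescent compounds, cut at about 42% in these data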;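 also: stock transfer was 100 nL into about 11 µL; a reference agonist was the positive control; negative values mostly stem from fluorescent compounds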
Target sequence (P07550 whole entry, looked up): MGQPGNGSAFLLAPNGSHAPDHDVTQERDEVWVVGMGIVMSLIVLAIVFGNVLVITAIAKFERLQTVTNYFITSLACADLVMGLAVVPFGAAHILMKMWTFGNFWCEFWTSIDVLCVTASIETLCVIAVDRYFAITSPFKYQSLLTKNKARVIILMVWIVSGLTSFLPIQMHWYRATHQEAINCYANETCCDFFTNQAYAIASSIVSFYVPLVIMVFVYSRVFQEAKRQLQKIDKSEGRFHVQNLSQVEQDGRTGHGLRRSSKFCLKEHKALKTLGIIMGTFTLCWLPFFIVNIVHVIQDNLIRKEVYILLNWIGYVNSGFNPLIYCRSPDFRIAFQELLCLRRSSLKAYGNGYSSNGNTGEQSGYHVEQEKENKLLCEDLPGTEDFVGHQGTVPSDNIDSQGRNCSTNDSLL
LANA-H2A inh – blocks KSHV LANA binding to histone H2A/H2B; Q9QR71; cell-free LANA-H2A/H2B peptide, fluorescence polarization; inhibition, % (no concentration beside the values); actives 0.6% (n = 320,000); AID 2629; in the data active = inhibition mostly above about 10%, no sharp cut-off; inactive = mostly below about 6.7%;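 also: stock transfer was 7.5 nL into about 10 µL; 0% = median of vehicle wells and 100% = median of positive control wells; one replicate is shown; the record names a cut of 25% in any replicate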
rRNA inh HTS OD600 – further read-out of rRNA inh HTS, marked with its call; OD600 change, %; measured here: OD600 growth;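 optical density of the mix in the first replicate; 0 = DMSO median and -100 = no signal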
rRNA inh HTS RFP – also measured in rRNA inh HTS; calls as there; RFP signal change, %; measured here: RFP humanized mutant strains;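 first replicate; 0 = DMSO median and -100 = no signal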
Starred values were filed as active, the others as inactive; ? = inconclusive; · = not tested or not shown; & = joins results of further samples.

SMILES | Beta cell apopt | ALR H2O2 inh | rRNA inh HTS | rRNA inh HTS OD600 | rRNA inh HTS RFP | Calb FLC | Bfl-1 A1 inh | T cruzi repl | B2AR ag | LANA-H2A inh
CC(C)(C)C(=O)OC/C(N)=N/OC(=O)c1ccccc1 | 3 | -16 | 1 | 8 | -0.1 | 19 | 1.2 | 0 | 9 | 9.7
CC(=O)c1sc(NC(=O)C2COc3ccccc3O2)nc1C (stereo not drawn) | 3 | -5 | -9 | -28 | -9.5 | 10 | -3.7 | -8 | -6 | 0.4
CCOc1cccc2c1OC1(C)CC2NC(=O)N1c1ccc(OC)cc1 (stereo not drawn) | -6 | · | · | · | · | -3 | -2.2 | 2 | -11 | 1.7
CCOC(=O)c1ccc(N2C(=O)CC(NC3CCN(C(=O)c4ccc(F)cc4)CC3)C2=O)cc1 (stereo not drawn) | -2 | -2 | · | · | · | -7 | -0.3 | -1 | 8 | -1.4
CCCCCc1ccc(C2=NNC(=O)CC2)cc1 | · | -11 | -2 | -4 | 1.6 | 2 | 0.1 | -3 | -12 | -5.8
C=CCNC(=O)c1cccc(NS(=O)(=O)c2ccc(Cl)cc2)c1 | -2 | 1 | -13 | -11 | -13 | 4 | -0.4 | -3 | 3 | -1.7
CN1C(=O)NC(c2ccccc2)C2=C1CN(c1cccc(C(F)(F)F)c1)C2=O (stereo not drawn) | -2 | -3 | · | · | · | 42 | -0.4 | 7 | -2 | -2.8
O=C(CCCN1C(=O)/C(=C/c2cccs2)SC1=S)Nc1cccc(C(=O)O)c1 | 10 | -21 | 17 | 25 | 55 | 4 | -2.0 | -4 | -3 | -9.7
CC(C)CCN(N=O)[C@@H](Cc1ccccc1)CN(N=O)[C@@H](Cc1ccccc1)CN(C)N=O | 11 | -33 | -2 | -11 | -4.5 | -1 | 1.1 | 42 | -10 | 0.9
COc1ccc(-n2c(SCC(=O)NCc3ccco3)nc3sc4c(c3c2=O)CCN(C)C4)cc1 | 0 | 98* | -1 | 11 | 8.5 | 32 | 0.2 | 33 | -8 | 0.3
O=C(CSc1nccn1Cc1ccco1)Nc1cccc(F)c1 | -13 | -1 | -6 | -6 | -3.5 | -2 | -0.1 | -8 | 1 | -4.3
CCN(CC)C1CCN(c2nc3nonc3nc2NCCOC)C1 (stereo not drawn) | -2 | -5 | 3 | 7 | 0.2 | 3 | 0.7 | 7 | -2 | -2.8
O=C(CCCN1C(=O)/C(=C/c2ccc(F)cc2)SC1=S)NC1CCS(=O)(=O)C1 (stereo not drawn) | -27 | -10 | 9 | 0 | -11 | -7 | -1.5 | 4 | 0 | -1.4
CCCNC(=O)CNC(=S)N(Cc1ccccc1F)C1CCCCC1 | -14 | · | -34 | -38 | 6.4 | 3 | 0.1 | 15 | 4 | 4.1
CCCN1C(=O)/C(=C\c2ccncc2)SC1=Nc1ccccc1 | -9 | 21 | · | · | · | -30 | 0.1 | 6 | 7 | 3.4
COCCCNc1nc2c([nH]1)c(=O)[nH]c(=O)n2C | -9 | 4 | · | · | · | -4 | -0.3 | 2 | -5 | 1.7
C[C@H](CO)N1C[C@H](C)[C@@H](CN(C)CC2CCCCC2)Oc2ccc(NC(=O)Cn3cnnn3)cc2C1=O | 20 | -3 | 1&24 | 1&2 | -0.8&12 | · | 0.6 | · | -4 | -3.9
COc1ccc(NC(=O)NNC(=O)COc2ccc3ccccc3c2)cc1OC | -5 | -44 | -1 | -3 | 1.2 | 7 | 0.5 | 5 | 5 | 0.5
CCN(CC)CCNCc1cc(Cl)c(OCC(=O)Nc2ccccc2)c(OC)c1 | 0 | 1 | 7 | 3 | 3.6 | 2 | 1.6 | 9 | 16 | -0.9
CN1CCN(C2=NC(=O)/C(=C/c3cn[nH]c3-c3ccccc3)S2)CC1 | 1 | 15 | 4 | 9 | 1.5 | 4 | 0.0 | 10 | -3 | 9.4
CN(Cc1ccco1)C(=O)Cn1nc(-c2ccc(Cl)cc2)ccc1=O | -3 | -2 | -5 | -2 | -4.6 | 0 | 0.4 | 4 | -9 | -0.4
O=C(O)c1cc(S(=O)(=O)NCC2CCCO2)ccc1Cl (stereo not drawn) | 0 | 8 | · | · | · | 6 | 0.2 | 1 | -1 | 0.8
Cc1c(Cl)cccc1NC(=O)CSc1nnc(C)n1-c1ccccc1 | -7 | -4 | · | · | · | 0 | 0.0 | 4 | 1 | -3.4
CCCN(S(=O)(=O)c1ccccc1F)S(=O)(=O)c1ccccc1Br | 0 | -2 | -4 | -8 | 3.0 | 4 | -0.8 | 25 | 7 | 3.2
CCc1nnc(NC(=O)Cc2ccc(OCc3c(C)noc3C)cc2)s1 | -1 | -3 | · | · | · | -2 | 1.8 | 6 | 0 | 0.4
CCS(=O)(=O)N1CCN(C(=O)c2cc(OC)cc(OC)c2)CC1 | -5 | -11 | 5 | 8 | 2.1 | 2 | 0.7 | 3 | -1 | -4.2
COc1cccc(NC(=O)CNC(=O)c2ccc([N+](=O)[O-])cc2)c1 | -7 | -5 | 3 | -3 | -2.4 | 9 | 0.4 | -1 | 6 | -1.2
CC(=O)N1c2c(cc(Br)cc2S(=O)(=O)N2CCN(c3ccccn3)CC2)CC1C (stereo not drawn) | 1 | -34 | · | · | · | -1 | -0.1 | 6 | -9 | 0.0
O=C(CC12CC3CC(CC(Br)(C3)C1)C2)NC1CCCC1 | -5 | · | 8 | 9 | -1.2 | -13 | 0.8 | -8 | 5 | 12*
CCOC(=O)N1CCN(CCC(=O)Nc2cccc(Br)c2)CC1 | 2&-5 | -12&0 | · | · | · | -10&-3 | -0.2&-0.2 | 0&-17 | -1&7 | 4.1&4.1
CCOc1ccc(/C=N/NC(=O)Nc2ccccc2)cc1 | 0 | -2 | 12 | 16 | -0.4 | ? | -1.9 | -4 | 0 | 0.5
CC1CC(C)(C)NC(=S)N1CCCC(=O)Nc1ccc(Br)cc1 (stereo not drawn) | -8 | -2 | -37* | 15* | -3.5* | 3 | -1.6 | -7 | 5 | 0.8
O=C(/C=N/O)Nc1ccc2sc3ccccc3c2c1 | -7 | -79 | -32 | -53 | -7.8 | 5 | -0.3 | · | 10 | 2.4
Cc1cccc(C)c1N=Nc1c(C)cc(O)cc1C | 7 | 92* | -29 | -38 | -0.7 | -1 | 0.4 | -10 | -1 | 0.2
CCOC(=O)c1ccc(NC(=O)COC)cc1 | -10 | · | · | · | · | 27 | -0.8 | -23 | 10 | -6.0
O=[N+]([O-])c1cc(S(=O)(=O)Nc2cccc(Cl)c2)ccc1N=Nc1c(O)[nH]c2ccccc12 | 51 | -5 | -2 | 11 | 3.2 | -2 | -0.9 | 62* | 21 | 2.4
Cc1cccc(NC(=S)NCc2ccco2)c1C | -3 | 1 | 7 | 1 | -11 | -2 | 2.6 | -10 | 2 | -0.2
O=C(N=c1ccn(-c2nc3ccccc3nc2NS(=O)(=O)c2ccc(Cl)cc2)cc1)c1ccccc1Cl | · | · | · | · | · | -3 | -0.3 | 5 | · | 15*
O=C(NCc1ccccc1)C1CCCN(c2ncnc3c2nc2n3CCCCC2)C1 (stereo not drawn) | 9 | 2 | -6 | -18 | -5.7 | 8 | -0.5 | -8 | -4 | 4.5
COc1ccc(C(=O)NCC(=O)OCC(=O)N2CCN(S(=O)(=O)c3ccccc3)CC2)cc1 | 2 | 7 | · | · | · | -4 | 0.1 | -5 | 6 | -2.7
Cc1ccc(OC(=O)c2cccc(S(=O)(=O)N3CCN(C)CC3)c2)c(Br)c1 | -8 | 8 | -12 | -17 | -0.9 | 7 | 0.1 | -1 | -3 | -10
Cc1nc2c3cc(Cl)ccc3n(CCN3CCCCC3)c2s1 | 20 | -8 | · | · | · | 25 | -0.3 | 18 | -11 | 0.0
COc1ccc(CN(C(=O)c2ccccc2Br)C2CCS(=O)(=O)C2)cc1 (stereo not drawn) | -1 | -6 | 1 | -3 | -0.5 | 3 | · | 0 | 0 | -4.3
COc1cc(NC(=O)CN2CCN(c3ccccc3F)CC2)cc(OC)c1 | -2 | -3 | · | · | · | · | -0.3 | · | -2 | -2.2
O=c1c2c3c(sc2n(CCN2CCOCC2)c(=O)n1Cc1ccco1)CCCCC3 | · | 2 | · | · | · | 27 | 0.0 | 34 | 8 | -5.1
O=C(Nc1ccc2c(c1)OCO2)c1ccc2nc[nH]c2c1 | 2 | -30 | · | · | · | -10 | -1.0 | -5 | 2 | -1.5
CCCCn1c(N)c(N(CC(C)C)C(=O)C2=COCCO2)c(=O)[nH]c1=O | 2 | 3 | · | · | · | · | -1.3 | · | 0 | ·
CSc1nc2cc(Cl)ccc2s1 | -8 | · | · | · | · | 0 | -1.0 | -11 | 5 | 2.2
COc1cc(S(=O)(=O)NCCOC23CC4CC(CC(C4)C2)C3)c(OC)cc1Cl | 7 | 4 | 4 | 6 | 3.6 | -5 | -0.5 | 8 | -4 | -7.7
O=C(Oc1ccc(Cl)cc1)c1ccc2nccnc2c1 | -13 | -8 | · | · | · | -4 | 0.0 | -1 | 3 | 3.2
O=C(CN1CCN(Cc2ccccc2)CC1)Nc1ccccc1-c1ccccc1 | -3 | · | -55 | -79 | -11 | 19 | 0.0 | 3 | -2 | 2.6
CCNC(=S)N1CCc2cc(OC)c(OC)cc2C1COc1ccc(F)cc1 (stereo not drawn) | -2 | 2 | -31* | -17* | -3.1* | 21 | -0.2 | 9 | 5 | -6.6
COc1cccc(/C=N/NC(=O)c2cc3cc([N+](=O)[O-])ccc3s2)c1O | 82* | 18 | 5 | 7 | 4.9 | -11 | ? | 23 | -1 | -1.4
O=C(O)c1ccc(Cl)c(S(=O)(=O)NCC2CCCO2)c1 (stereo not drawn) | -5 | -2 | · | · | · | -6 | 0.5 | -12 | -7 | 0.9
CC(/C=N/n1c(-c2ccc(Cl)cc2)n[nH]c1=S)=C\c1ccco1 | 1 | 47 | -1 | -14 | 13 | 15 | -0.2 | -13 | -13 | -1.2
COc1cc(C)c(Cl)c(C)c1S(=O)(=O)NC1CC(C)(C)NC(C)(C)C1 | 1 | -5 | 8 | 6 | 9.1 | -15 | -1.5 | -11 | 4 | 0.0
CC(=O)NC(C)(CC(=O)c1ccccc1)c1ccccc1 (stereo not drawn) | -4 | -8 | 10 | 6 | -0.6 | 0 | -0.4 | -11 | -4 | -0.6
CC(=O)C1=C(O)C(=O)N(c2ccc(Br)cn2)C1c1ccc(F)cc1 (stereo not drawn) | 3 | 5 | 3 | 6 | -0.7 | · | 0.8 | -9 | -2 | -3.1
C=CCNC(=S)Nc1nc2c(cc1C(=O)OCC)CCCC2 | -4 | 7 | · | · | · | -30 | -2.5 | -7 | -2 | 0.0
COc1ccc(S(=O)(=O)N(CC(=O)NCC2CCCO2)c2ccc(Cl)cc2)cc1 (stereo not drawn) | 1 | -8 | -10 | -13 | 3.3 | 9 | 1.9 | -4 | -7 | -1.8
COc1ccc(C(=O)Nc2ccc3[nH]ncc3c2)cc1 | 0 | -11 | 9 | -1 | 1.9 | -7 | -8.0 | 6 | 5 | 0.6

Screening results deposited in PubChem by several laboratories.

The list is partial; the hit share may differ from the screen's.
